Compound activity (PubChem)
PKD1 inh = blocks activity of human protein kinase D1; Q15139; PKD1 kinase fluorescence polarization assay; inhibition, %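 (about 10 µM by stock and volumes)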; 200,000 tested, 0.056% active;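 active means inhibition of 50% or more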;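 further: controls were vehicle for no effect and a reference inhibitor for full effect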
Insulin prom inh = TRM-6 insulin promoter activity inhibition | TRM-6 cells (human fetal islet line), insulin promoter-eGFP reporter, imaging; reporter expression induced with tamoxifen | inhibition, % at 2 µM | 130,000 tested, 0.9% active;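 active means inhibition above the mean plus 3 SD, with well images judged a real hit on visual review, cut at about 60% in these data, passing the limit was not always enough; inconclusive means inhibition over the cutoff but images rejected on review; inactive means inhibition not above the cutoff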
GALR2 ag = agonists of human galanin receptor 2 (GALR2); activation, %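 (tested at 5 µM)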; GALR2-expressing cells, agonist activation read-out; 140,000 tested, 0.48% active; AID 803; O43603;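 active means above mean plus 3 SD of all compounds, about 5% in these data, not always enough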;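 further: 0% = vehicle buffer wells and 100% = reference agonist at full effect; tested in CHO reporter cells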
Target sequence (O43603 whole entry, looked up): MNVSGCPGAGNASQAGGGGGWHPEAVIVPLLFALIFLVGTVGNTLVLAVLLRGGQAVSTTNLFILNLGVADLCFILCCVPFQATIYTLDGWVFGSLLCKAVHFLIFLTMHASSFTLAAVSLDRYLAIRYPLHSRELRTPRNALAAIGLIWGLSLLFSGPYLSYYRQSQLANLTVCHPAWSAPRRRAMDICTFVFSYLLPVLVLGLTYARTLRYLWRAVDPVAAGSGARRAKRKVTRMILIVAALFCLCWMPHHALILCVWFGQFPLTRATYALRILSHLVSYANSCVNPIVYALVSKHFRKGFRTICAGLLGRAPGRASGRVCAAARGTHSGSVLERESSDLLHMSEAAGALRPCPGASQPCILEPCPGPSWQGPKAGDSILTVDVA
HSV replic up = HSV replication enhancement. HSV replication augmentation in cells, fold increase. maximum fold increase. 220,000 tested, 0.005% active. AID 1956;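 active means peak rise of 1.5-fold or more in the series; inconclusive means self-fluorescent or not available for retest; tested in PC3 cells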;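 further: first round at 10 µM; read as green reporter fluorescence; hits show the peak of a series up to 25 µM; 1 = signal of infected wells without compound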
RGS16-Gao HTS = RGS16-Galphao interaction regulator (human) | 220,000 tested, 0.38% active | binding response (% of control), % at 10 µM | O15492+P09471 | bead-based flow cytometry RGS16-Galphao binding, fluorescence; actives lie on both sides | AID 1441;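 active means below 25% or above 175%, edge rows of some plates excepted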;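 further: Galphao activated by GDP with aluminum fluoride before binding; 100% = wells without compound and 0% = beads without RGS; some results beyond the cut were filed as inactive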
Target sequence (O15492 whole entry, looked up): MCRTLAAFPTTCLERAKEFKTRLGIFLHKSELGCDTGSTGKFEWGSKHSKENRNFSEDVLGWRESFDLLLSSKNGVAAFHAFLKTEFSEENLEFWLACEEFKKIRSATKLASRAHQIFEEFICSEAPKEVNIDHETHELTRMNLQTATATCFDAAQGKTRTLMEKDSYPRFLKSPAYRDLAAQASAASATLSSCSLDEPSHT
Target sequence (P09471 whole entry, looked up): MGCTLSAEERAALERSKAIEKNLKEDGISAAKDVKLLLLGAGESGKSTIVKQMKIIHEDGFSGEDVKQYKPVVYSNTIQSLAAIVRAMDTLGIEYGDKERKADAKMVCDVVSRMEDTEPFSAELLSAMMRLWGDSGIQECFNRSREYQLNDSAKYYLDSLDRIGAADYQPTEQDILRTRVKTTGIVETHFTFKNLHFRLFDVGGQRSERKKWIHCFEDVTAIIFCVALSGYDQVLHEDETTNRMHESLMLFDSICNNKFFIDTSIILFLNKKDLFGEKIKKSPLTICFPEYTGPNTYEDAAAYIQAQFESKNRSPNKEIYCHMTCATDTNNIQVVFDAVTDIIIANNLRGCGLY
Insulin prom inh cell count = recorded beside Insulin prom inh, whose call it bears; normalized cell count, %; measured here: cell count, toxicity; reference of the scale not given here;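 cells exposed to compound for 48 h; stained nuclei by imaging scaled within each plate; lower means fewer cells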
HSV replic up primary fold = second read-out of HSV replic up, no call of its own (marks repeat the call); fold increase; compound at 10 µM; measured here: primary screen fold increase 10 uM; tested in PC3 cells;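 GFP signal in the first replicate; 1 = infected wells without compound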
Numbers without * were called inactive; i = inactive; ? = inconclusive; / = not tested or not shown.

structure,PKD1 inh,Insulin prom inh,Insulin prom inh cell count,GALR2 ag,HSV replic up,HSV replic up primary fold,RGS16-Gao HTS
COc1cc(NC(=S)N2CCCC(CO)C2)c(OC)cc1Cl (configuration not stated),-1,-40,67,-0.4,i,0.87,53
Cc1oc(C)c(S(=O)(=O)NCc2cccs2)c1C(=O)O,/,/,/,/,i,1,96
CCOC(=O)c1cc(-c2ccc(OC)cc2)nn1-c1ccc(C(=O)O)cc1,2,/,/,/,i,1,102
COc1ccc(/C=N/NC(=O)c2ccccc2)cc1OS(=O)(=O)c1ccccc1,-3,18,99,-0.9,i,0.72,98
CC(=O)NNC(=O)c1csc(-c2csc(C)n2)n1,/,/,/,/,i,1,97
Cc1noc(C(=O)NC2CCCCC2)c1Cl,/,/,/,/,i,1.1,100
O=C(CN(CC1CCCO1)C(=O)c1nsc(Cl)c1Cl)NC1CCCC1 (configuration not stated),-2,-86,69,/,i,0.91,99
COc1ccc(C(=O)NCC(=O)Nc2cccc(S(=O)(=O)NCc3ccco3)c2)cc1OC,4,/,/,/,i,1.1,106
O=C(NCC1COc2ccccc2O1)c1cn(Cc2ccc(F)cc2)nn1 (configuration not stated),-2,-20,149,-0.3,i,0.99,106
CCCOC(=O)C[N+](C)(C)CCOC1CC2CCC1(C)C2(C)C (configuration not stated),/,/,/,/,i,1.2,100
COc1ccc(/C=N/NC(=O)c2cccnc2)cc1COc1ccc([N+](=O)[O-])c(C)c1,/,/,/,/,i,0.68,100
CCCCn1c(-c2ccco2)nc2ccccc2c1=O,-2,-45,114,1.3,i,0.99,101

Ordered by number of heavy atoms (rising): 3 of the compounds above.
structure,PKD1 inh,Insulin prom inh,Insulin prom inh cell count,GALR2 ag,HSV replic up,HSV replic up primary fold,RGS16-Gao HTS
Cc1noc(C(=O)NC2CCCCC2)c1Cl,/,/,/,/,i,1.1,100
O=C(NCC1COc2ccccc2O1)c1cn(Cc2ccc(F)cc2)nn1 (configuration not stated),-2,-20,149,-0.3,i,0.99,106
COc1ccc(C(=O)NCC(=O)Nc2cccc(S(=O)(=O)NCc3ccco3)c2)cc1OC,4,/,/,/,i,1.1,106

Going on with the list:
structure,PKD1 inh,Insulin prom inh,Insulin prom inh cell count,GALR2 ag,HSV replic up,HSV replic up primary fold,RGS16-Gao HTS
Cn1c(SCc2ccc(Cl)cc2)nc(C(F)(F)F)cc1=O,-9,-22,120,-1.8,i,1.1,115
COc1ccc2[nH]c3c(=O)n(Cc4ccncc4)cnc3c2c1,/,/,/,/,i,1,103
Cc1c(Cl)ccc2c(C(N)=O)cc(-c3ccccn3)nc12,-5,/,/,/,i,1.1,97
Cn1c(=O)c2c(nc(SCCN3CCCCC3)n2Cc2ccccc2)n(C)c1=O,-3,/,/,-1.4,i,1,93
O=C(Nc1ccc(S(=O)(=O)NC2=NCCCCC2)cc1)c1ccc2ccccc2n1,-1,-61,63,/,i,0.88,97
CCCCCCNCc1c(F)cccc1Cl,-8,9,126,0.3,i,1,100
COCC(C)NC(=O)c1ccccc1[N+](=O)[O-] (configuration not stated),-11,-25,145,-0.1,/,/,108
O=C(NNC(=S)NCc1ccc(Cl)cc1)c1ccc2c(c1)OCO2,5,/,/,/,i,1.1,97
Cc1ccc(S(=O)(=O)NCC(=O)N(CC(=O)NC2CCCCC2)Cc2ccco2)cc1,6,47,71,1.5,i,0.97,103
COc1ccc(-n2cc3c(-c4cccc(Br)c4)nnc(C)c3n2)cc1,3,-11,114,0.0,i,0.78,86
COc1ccccc1NC(=O)CSc1nnc(C)n1Cc1ccccc1,7,-44,124,-0.4,i,0.92,110
CC(=O)Nc1nc(-c2ccccc2)nc(C)c1C(C)=O,-1,3,118,-1.8,i,1,151
COC(=O)C(NC(C)=O)(Nc1ccc(Br)cc1)C(=O)OC,5,46,143,-1.2,i,1.2,102
COc1ccc(-c2coc3cc4oc(=O)c5ccccc5c4cc23)cc1F,-10,-148,2,2.1,i,0.92,110
O=C(NCc1ccc(Cl)cc1)C(=O)NCC(c1ccco1)N1CCOCC1 (configuration not stated),-9,/,/,-1.1,i,0.83,106
O=S(=O)(Nc1cccc(CO)c1)c1cccs1,/,/,/,/,i,0.98,98
O=C(Nc1ccc(Cl)cc1)OCc1cc(-c2ccccc2)on1,-7,22,109,1.3,i,0.9,107
Cc1ccc(-c2cc(C(F)(F)F)n3nc(C(=O)Nc4ccon4)cc3n2)cc1C,/,/,/,/,i,0.72,98
O=C1c2ccc(Oc3ccc([N+](=O)[O-])cc3)cc2C(=O)N1c1ccncc1,4,/,/,/,i,1.1,103
CC(=O)Nc1ccc(NS(=O)(=O)c2ccccc2)cc1,3,/,/,/,i,0.96,99
Cc1ccc(-c2nc3cc(NS(=O)(=O)c4ccc(C)cc4)ccc3o2)cc1,-6,9,110,-1.9,i,1.1,101
CCOc1ccc2nc(SCc3ccc(OC)cc3)sc2c1,-5,6,117,-1.5,i,1,99
COCC(=O)NC1CCN(S(=O)(=O)c2cccc(C(C)=O)c2)CC1,3,/,/,/,i,0.98,104
CCOC(=O)NC(=O)CSc1nnc(C)s1,-3,64,80,-3.4,i,0.94,104
Nc1c(-c2ccc(Cl)cc2)cnn1C1CCS(=O)(=O)C1 (configuration not stated),-10,-28,122,-0.9,i,0.98,107
Cc1ccc(OCC(=O)N/N=C/C=C/c2ccco2)cc1,7,/,/,-2.0,i,1.1,94
NC(=O)C1Cc2ccccc2CN1S(=O)(=O)c1cccs1 (configuration not stated),-8,/,/,/,i,0.99,102
COc1ccc(S(=O)(=O)NCC(=O)Nc2cccc(C)c2C)cc1OC,0,-6,85,/,i,0.96,102
O=C(CSc1nnc(Cc2cccs2)n1Cc1ccco1)Nc1ccc(Br)cc1,1,-69,86,-3.5,i,1.1,98
C=C(C)Cn1c(C)cc(C)c(S(=O)(=O)c2cccc(C)c2)c1=O,-6,/,/,/,i,0.98,100
Cc1ccc2sc(NNC(=O)c3cc(-c4cccs4)nc4ccccc34)nc2c1C,2,55,85,-0.6,/,/,92
CCCN1c2cccc3cccc(c23)S1(=O)=O,3,38,80,1.4,i,0.96,63
O=C(/C=C/c1ccc([N+](=O)[O-])cc1)NCc1ccccn1,-8,-25,84,-1.6,i,0.93,101
Cc1cccc(-n2[nH]c(C)c(C=Nc3ccc4[nH]c(=O)[nH]c4c3)c2=O)c1,0,47,125,-1.1,i,1.1,101
COc1cc(CCC(=O)Nc2ccc(Cl)c(C(F)(F)F)c2)cc(OC)c1OC,6,-277,136,-1.5,i,0.94,103
Cc1ccc(S(=O)(=O)NC(=O)c2cccn2C)cc1,-10,44,139,-2.8,i,0.86,108
CC(C)NCCCCOc1ccccc1-c1ccccc1,-3,-37,137,0.5,i,0.89,107
CCOC(=O)COc1c(-c2ccc(OC)cc2)oc2ccccc2c1=O,-6,-134,49,-5.4,/,/,95
O=C(O)COc1ccc(Nc2ccccc2)cc1,3,/,/,/,i,0.96,101
COC(=O)C1=C(CSc2nnnn2C)NC(=O)NC1c1cc(C)ccc1C (configuration not stated),-15,-6,112,-0.3,i,0.92,102
CCN(CC)CCNc1ccc(Cl)cc1[N+](=O)[O-],2,-27,157,-0.8,i,1.2,/
Cc1ccc(C)c(S(=O)(=O)N/N=C/c2ccc(C(=O)O)cc2)c1,-7,10,114,-1.4,i,0.96,111
COc1ccc(OC)c(/C=N/NC(=O)CCc2c(C)n[nH]c2C)c1,/,/,/,/,i,0.81,99
CCOc1ccc(NC(=O)C(=O)N/N=C/c2ccccc2F)cc1,0,27,137,/,i,1,110
O=C(COc1ccccc1)Nc1sc2c(c1C(=O)NCc1cccnc1)CCCC2,-1,-21,82,9.9,i,1,94
S=c1[nH]nc(Cn2nnc3ccccc32)n1-c1ccc(Cl)cc1,-10,/,/,/,i,1.1,101
COc1cccc2c(=O)n(CC(=O)Nc3ccc(F)cc3F)ccc12,2,/,/,-1.9,i,1.1,106
N#CCO/N=C/C(=O)Nc1ccc(F)cc1F,-2,-53,59,/,i,1,104
O=C(Nc1ccc(-c2nc3cccnc3s2)cc1)c1cccnc1Cl,/,/,/,/,i,0.97,96
Cc1cc(C)cc(NC(=S)NC2CC3CCCC(C2)N3CC(C)C)c1 (configuration not stated),-9,/,/,/,i,1,103
COc1cc(OC)c(OC)cc1/C=N/NC(=O)c1cc(-c2cccn2C)n[nH]1,2,/,/,-2.1,i,0.73,101
COCCCN1CN(Cc2ccco2)CNC1=S,/,/,/,/,i,1.1,100
CCC(C)(C)NC(=O)C(c1ccccc1F)N(Cc1ccco1)C(=O)c1csnn1 (configuration not stated),-10,-86,9,-0.4,i,0.73,101
Cc1ccc(C)c(SCC(=O)OCC(=O)Nc2ccc(S(=O)(=O)N3CCOCC3)cc2)c1,-1,45,169,-1.9,i,0.67,98
N#Cc1c(N)oc(-c2ccccc2)c1-c1ccccc1,-1,-11,113,-1.2,i,1.1,99
Nc1nnc(CCS(=O)(=O)c2ccc(Br)cc2)s1,-1,/,/,/,i,0.82,104
Cc1c(NC(=O)c2c(O)c3ccccc3n(C)c2=O)c(=O)n(-c2ccccc2)n1C,-3,/,/,/,i,1,98
Cc1oc(-c2ccccc2)cc1C(=O)Nc1ccc2ccccc2c1,6,-5,58,-0.7,i,0.9,99
O=C1CCCN1c1ccc(S(=O)(=O)NCCOc2ccccc2)cc1,-7,-56,92,-0.3,i,0.99,101
Cc1cc(C)c(-c2c(O)c3cnn(-c4ccccc4)c3[nH]c2=O)c(C)c1,0,67*,149*,34*,i,0.94,103

(cont.)
structure,PKD1 inh,Insulin prom inh,Insulin prom inh cell count,GALR2 ag,HSV replic up,HSV replic up primary fold,RGS16-Gao HTS
COC(=O)C1=C(C(=O)OC)SC2(S1)C(C(=O)OC)=C(C(=O)OC)SC1=C2c2cc(C)cc(C)c2NC1(C)C,4,/,/,-1.5,i,0.85,96
COCCCn1c(=O)/c(=C\c2ccccc2OC(C)C)s/c1=C(/C#N)C(=O)Nc1ccc(C(=O)O)cc1,/,/,/,/,?,/,96
COc1ccc(CC(NC(C)=O)C(=O)NC2CCN(C(=O)c3ccc([N+](=O)[O-])cc3)CC2)cc1OC (configuration not stated),/,/,/,/,i,0.84,101
CCn1cc(C(=O)NP(=O)(Nc2ccc(C)cc2)Nc2ccc(C)cc2)c2ccccc21,/,/,/,/,i,0.9,96
Cn1nnnc1SCCNS(=O)(=O)c1ccccc1,5,38,214,-1.1,i,0.86,108
O=C(Cn1ncc2c(=O)oc3ccccc3c21)N(Cc1ccco1)C1CCCCC1,1,/,/,-1.2,i,0.85,101
CC(=O)Nc1sc(C)c(C)c1C(=O)OC(C)C,-1,8,155,0.5,/,/,100
Cc1nn(C)cc1C(C(=O)NC1CCCCC1)N(Cc1ccc(F)cc1)C(=O)c1cnccn1 (configuration not stated),-7,-100,46,/,i,0.96,99
COc1ccc(CNC(=O)N[C@@H](CC(C)C)C(=O)O)cc1OC,/,/,/,/,i,0.97,99
CCCOc1ccc(/C=C/C(=O)Nc2ccc([N+](=O)[O-])cc2)cc1,-8,13,180,-1.5,/,/,106
Cc1csc2nc(CNC(=O)c3ccco3)cn12,-4,-24,115,-2.4,i,0.98,107
COc1ccc(-c2[nH]ncc2CN2CCCO2)c(F)c1,4,/,/,/,i,1,98
Cc1ccc(-c2ccc(/C=C(\C#N)C(N)=S)n2C)cc1,/,/,/,/,i,1,104
Cc1cccc(C)c1OCCNC(=O)OCc1ccccc1,-5,/,/,/,i,0.98,93
O=S(=O)(NCC1OCCc2ccccc21)c1ccccc1 (configuration not stated),-1,29,89,-0.9,i,0.98,101
CC(=O)NC(Cc1ccccc1)C(=O)OCC(=O)c1ccc(F)cc1 (configuration not stated),4,17,95,0.5,/,/,112
S=C1CCC(c2ccc(Br)cc2)=NN1c1ccccc1,/,/,/,/,i,0.87,110
COC(=O)CSc1nnc(-c2ccc(NS(=O)(=O)c3ccccc3)cc2)o1,-9,/,/,-0.3,i,1,99
Cc1cc(C(=O)NCCCN2CC(C)CC(C)C2)n(-c2ccccc2)n1 (configuration not stated),-1,/,/,-0.6,i,1,94
CCCCCC(=O)Nc1cccc2ccccc12,-8,-14,89,/,i,0.8,100
CCc1ccccc1Nc1nc(N)nc(CSCC(=O)Nc2ccc(C)c(C)c2)n1,-8,45,123,-1.1,i,0.82,104
